Bioassay records: PubChem, Broad Institute
AF4-AF9 inh – inhibitors of human MLL-AF4/AF9 interaction; P42568; AlphaScreen, biotin-AF4 peptide binding to FLAG-AF9; inhibition, % at 10 µM; actives 0.47% (n = 350,000); AID 651704;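 active = every replicate reaching a set inhibition limit, whatever the replicate mean, cut at about 25% in these data; inconclusive = mean inhibition reaches that limit but some replicates miss it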;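 also: 0% = plate neutral control median and 100% = total signal loss; the record names both 10 and 1 µM as test concentration; the first replicate is given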
Target sequence (P42568 whole entry, looked up): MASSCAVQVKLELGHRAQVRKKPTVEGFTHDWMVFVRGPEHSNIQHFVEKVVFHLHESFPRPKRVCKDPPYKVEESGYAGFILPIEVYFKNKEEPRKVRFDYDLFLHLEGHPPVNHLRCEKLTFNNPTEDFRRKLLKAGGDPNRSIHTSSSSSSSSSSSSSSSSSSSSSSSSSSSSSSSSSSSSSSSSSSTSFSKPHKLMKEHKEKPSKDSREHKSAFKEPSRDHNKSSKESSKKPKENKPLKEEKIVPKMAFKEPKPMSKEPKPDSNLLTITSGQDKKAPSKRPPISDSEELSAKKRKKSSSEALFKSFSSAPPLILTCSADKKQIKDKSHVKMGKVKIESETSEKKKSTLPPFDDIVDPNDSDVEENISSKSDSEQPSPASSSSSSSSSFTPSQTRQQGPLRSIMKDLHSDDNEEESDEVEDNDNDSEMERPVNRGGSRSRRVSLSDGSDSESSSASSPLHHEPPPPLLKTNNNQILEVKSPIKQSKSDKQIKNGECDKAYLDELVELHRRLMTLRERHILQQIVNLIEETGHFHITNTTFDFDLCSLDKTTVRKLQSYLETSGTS
The depositor's hits bear a star; ? = inconclusive. These rows are one share of the data (hit frequency here may not be typical).

SMILES	AF4-AF9 inh
Cn1cnc(S(=O)(=O)N2C[C@@H](O)COC[C@H]3O[C@@H](CC(=O)NC4CCCC4)CC[C@@H]32)c1	-11.5
COc1ccc(NC(=O)N(C)C[C@H]2Oc3c(NC(=O)Nc4c(C)noc4C)cccc3C(=O)N([C@H](C)CO)C[C@H]2C)cc1	-2.3
O=C(C[C@@H]1CC[C@H]2[C@@H](COC[C@H](O)CN2Cc2ccc(Oc3ccccc3)cc2)O1)N1CCCCC1	4.7
C/C=C/c1ccc2c(c1)O[C@H](CN(C)C(=O)Nc1cc(F)ccc1F)[C@H](C)CN([C@H](C)CO)S2(=O)=O	-0.1
CN(C)C(=O)C[C@H]1C=C[C@H](NC(=O)C2CC2)[C@@H](CO)O1	-0.2
C[C@@H]1CN([C@@H](C)CO)C(=O)c2cc(-c3cccc(C#N)c3)cnc2O[C@@H]1CN(C)C(=O)C1CC1	-5.3
COc1ccc2c3c([nH]c2c1)[C@H](CO)N(C)CC31CCN(C(=O)c2ccccc2F)CC1	-3.3
O=C(Nc1cccc(Cl)c1)N[C@H]1CC[C@@H](CCNC(=O)C2CCCC2)O[C@@H]1CO	0.0
CN1CCN(C(=O)C[C@H]2CC[C@H]3[C@@H](COC[C@@H](O)CN3C(=O)Nc3ccc4c(c3)OCO4)O2)CC1	0.9
COCC(=O)Nc1ccc2c(c1)C(=O)N(C)C[C@@H](OC)[C@@H](C)CN(C(=O)c1cnccn1)[C@H](C)CO2	-2.1
COCC(=O)N1[C@H](CO)[C@@H](c2ccc(-c3cccc(OC)c3)cc2)C12CN(C(C)=O)C2	0.8
CC(C)CC#Cc1cnc2c(c1)C(=O)N([C@@H](C)CO)C[C@@H](C)[C@H](CN(C)Cc1cncnc1)O2	-0.5
CO[C@H]1CN(C)C(=O)c2cc(NC(C)=O)ccc2OC[C@@H](C)N(Cc2ccccc2C(=O)O)C[C@@H]1C	-3.7
OCC[C@@H]1C[C@H](O)[C@@H](O)[C@]2(OCc3cc(Cl)ccc32)O1	-26.9
C[C@H](CO)N1C[C@H](C)[C@@H](CN(C)Cc2ccc3c(c2)OCO3)Oc2ccc(NS(C)(=O)=O)cc2CC1=O	-1.1
COc1ccc(NC(=O)Nc2ccc3c(c2)C(=O)N([C@@H](C)CO)C[C@H](C)[C@@H](CN(C)S(C)(=O)=O)O3)cc1	-5.0
C[C@H](NC(=O)N(C)C[C@@H]1OCc2ccccc2-c2ccccc2C(=O)N([C@@H](C)CO)C[C@H]1C)c1ccccc1	-2.0
COc1ccc(S(=O)(=O)N(C)C[C@@H]2OCCCC[C@H](C)Oc3ccc(NC(=O)C4CCCCC4)cc3C(=O)N([C@H](C)CO)C[C@@H]2C)cc1	-2.5
CCC(=O)c1cc(Br)ccc1OCC(=O)N1CCN(S(=O)(=O)c2ccccc2)CC1	0.2
O=C(Cc1ccccc1)N1C[C@@H]2[C@H](c3ccccc31)[C@H](CO)N2C(=O)c1cccc(F)c1	-1.1
COc1ccc(S(=O)(=O)Nc2cccc3c2O[C@H](CN(C)C)[C@H](C)CN([C@@H](C)CO)C3=O)cc1	-1.0
Nc1ncnc2c1ncn2[C@@H]1O[C@H](CNC(=O)[C@@H](N)Cc2ccc(C(=O)c3ccccc3)cc2)[C@@H](O)[C@H]1O	-1.0
C[C@H](CO)N1C[C@H](C)[C@H](CN(C)Cc2ccc(C(=O)O)cc2)OCCCC[C@H](C)Oc2ccc(NC(=O)Nc3ccccc3)cc2C1=O	-1.3
CN(C)CCCNC(=O)C[C@@H]1CC[C@@H]2[C@H](COC[C@H](O)CN2S(=O)(=O)c2ccc(Cl)cc2)O1	0.3
O=C(NCc1ccc(F)cc1)[C@@H]1C[C@@H]2C(=O)N3CCC[C@H]3C(=O)N2[C@@H]1c1ccc(O)cc1	0.4
Cc1cn(CC(=O)NCC(C)c2ccccc2)c(=O)[nH]c1=O (centres undefined)	-0.7
Cc1ccc(S(=O)(=O)N2C[C@H]3[C@H]4C(=O)N(c5ccccc5)C(=O)[C@H]4CC(=O)[C@H]3[C@@H]2c2ccc(Cl)cc2)cc1	-0.9
C[C@@H]1CN([C@@H](C)CO)C(=O)Cc2cc(NC(=O)CCN3CCOCC3)ccc2O[C@H]1CN(C)Cc1ccc(Oc2ccccc2)cc1	18.3
CCc1nc2ccc(C(=O)Nc3ccc(Cl)c(Cl)c3)cn2c1N(C)Cc1ccc(OC)cc1	0.6
C[C@@H]1CN([C@H](C)CO)C(=O)c2cccc(NC(=O)c3ccncc3)c2O[C@@H]1CN(C)Cc1ccc(C(=O)Nc2ccccc2N)cc1	4.8
C[C@@H]1CCCCO[C@@H](CN(C)S(=O)(=O)c2ccc(Cl)cc2)[C@@H](C)CN([C@@H](C)CO)C(=O)c2cc(NC(=O)CCCN(C)C)ccc2O1	5.5
C[C@H](CO)N1C[C@H](C)[C@H](CN(C)S(=O)(=O)c2ccc(F)cc2)Oc2ccc(NC(=O)CCC(F)(F)F)cc2C1=O	-1.1
C[C@@H]1CN([C@H](C)CO)C(=O)c2cc(N(C)C)ccc2O[C@@H]1CN(C)Cc1ccc(Oc2ccccc2)cc1	51.5*
O=C(CN1CCOCC1)N1CCCCN2[C@H](C1)[C@H](c1ccc(-c3ccccc3F)cc1)[C@@H]2CO	-4.6
O=C(C[C@@H]1C=C[C@@H](NC(=O)NC2CCCCC2)[C@@H](CO)O1)NCc1ccccc1	-1.8
C[C@H]1CCCCO[C@@H](CN(C)C)[C@@H](C)CN([C@@H](C)CO)C(=O)c2cc(NC(=O)c3ccccc3)ccc2O1	0.8
CC=Cc1ccc2n(c1=O)C[C@@H]1[C@@H](CO)[C@H](C(=O)N(C)C)[C@H]2N1CCc1ccccc1 (mixture of isomers)	1.7
COc1ccc(NC(=O)Nc2ccc3c(c2)C(=O)N([C@H](C)CO)C[C@@H](C)[C@H](CN(C)Cc2ccc4c(c2)OCO4)OCCCC[C@H](C)O3)cc1	?
C[C@@H]1CN([C@@H](C)CO)C(=O)c2cccc(NC(=O)c3nc4ccccc4s3)c2O[C@@H]1CN(C)Cc1ccc(Cl)c(Cl)c1	5.6
C[C@@H]1CCCCO[C@@H](CN(C)S(=O)(=O)c2cn(C)cn2)[C@H](C)CN([C@H](C)CO)C(=O)c2cc(NC(=O)Nc3ccc(F)cc3)ccc2O1	-0.1

The closing two records of the section before are carried over, then new ones follow.
SMILES	AF4-AF9 inh
C[C@@H]1CN([C@@H](C)CO)C(=O)c2cccc(NC(=O)c3nc4ccccc4s3)c2O[C@@H]1CN(C)Cc1ccc(Cl)c(Cl)c1	5.6
C[C@@H]1CCCCO[C@@H](CN(C)S(=O)(=O)c2cn(C)cn2)[C@H](C)CN([C@H](C)CO)C(=O)c2cc(NC(=O)Nc3ccc(F)cc3)ccc2O1	-0.1
CC(C)NC(=O)N1[C@H](CO)[C@H](c2ccc(C#CC3CCCCC3)cc2)[C@@H]1C#N	-7.9
COc1ccc(NC(=O)N2C[C@H](O)COC[C@H]3O[C@@H](CC(=O)NC4Cc5ccccc5C4)CC[C@@H]32)cc1	-1.0
COc1ccc(S(=O)(=O)Nc2ccc3c(c2)C(=O)N([C@H](C)CO)C[C@@H](C)[C@H](CN(C)Cc2ccncc2)OCCCC[C@@H](C)O3)cc1	0.9
C[C@H]1CN([C@@H](C)CO)C(=O)c2cccc(NC(=O)C3CCOCC3)c2O[C@@H]1CN(C)S(=O)(=O)c1ccc(F)cc1	-4.8
CCCNC(=O)N1[C@H](CO)[C@@H]2c3ccccc3N(C(=O)c3ccc(F)cc3)C[C@@H]21	2.3
CC(=O)c1ccc(-c2cccc3nccn23)cc1	-1.9
CN(C)C(=O)[C@@H]1[C@@H](CO)[C@@H]2Cn3c(ccc(-c4ccccc4F)c3=O)[C@H]1N2C	0.5
COC(=O)C[C@H]1CC[C@H]2[C@@H](COC[C@H](O)CN2S(=O)(=O)c2ccccc2C)O1	-2.0
COc1cccc(C#Cc2ccc([C@@H]3[C@@H](C#N)N(C(=O)C4CCC4)[C@H]3CO)cc2)c1	1.1
CO[C@H]1CN(C)C(=O)c2cc(NC(=O)c3ccno3)ccc2OC[C@@H](C)NC[C@H]1C	-4.6
Cc1ccc(-c2cnc3c(c2)C(=O)N([C@H](C)CO)C[C@H](C)[C@H](CN(C)C(=O)Cc2ccncc2)O3)cc1	-0.4
Cc1ccccc1S(=O)(=O)N1C[C@@H](O)COC[C@H]2O[C@@H](CC(=O)N3CCOCC3)CC[C@@H]21	-2.1
C=C1C(=O)[C@]23C[C@H]1CCC2[C@@]1(C)C(C[C@@H]3O)[C@](C)(C(=O)OC)CC[C@@H]1O (some centres undefined)	-0.2
CO[C@@H]1CN(C)C(=O)c2ccc(NC(=O)C3CCCC3)cc2OC[C@@H](C)N(C(=O)CC2CC2)C[C@@H]1C	0.9
C[C@H](CO)N1C[C@H](C)[C@H](CN(C)C(=O)Nc2ccccc2)Oc2ncc(C#CC3CC3)cc2C1=O	-1.2
C[C@H]1CN([C@@H](C)CO)C(=O)Cc2cc(NS(=O)(=O)c3ccccc3)ccc2O[C@H]1CN(C)C(=O)Nc1cccc2ccccc12	1.2
CCC(=O)N1C[C@H]2[C@@H](c3ccccc31)[C@H](CO)N2Cc1ccccc1Cl	2.3
CCC(=O)Nc1ccc2c(c1)OC[C@H](C)N(Cc1ccccc1F)C[C@H](C)[C@@H](OC)CN(C)C2=O	3.0
COCC(=O)N(C)C[C@@H]1Oc2cc(-c3ccc(OC)cc3)ccc2S(=O)(=O)N([C@H](C)CO)C[C@H]1C	1.3
COc1ccc2c3c([nH]c2c1)[C@H](CO)N(CC1CC1)CC31CN(C(=O)c2ccc(F)cc2)C1	0.1

Marked active in AF4-AF9 inh (from the list above):
SMILES	AF4-AF9 inh
C[C@@H]1CN([C@H](C)CO)C(=O)c2cc(N(C)C)ccc2O[C@@H]1CN(C)Cc1ccc(Oc2ccccc2)cc1	51.5*

Other structures
SMILES	AF4-AF9 inh
CO[C@@H]1CN(C)C(=O)c2cc(NS(C)(=O)=O)ccc2OC[C@H](C)NC[C@H]1C	-4.5
COc1ccc(C#Cc2ccc3c(c2)O[C@@H](CN(C)C(=O)CN2CCOCC2)[C@H](C)CN([C@@H](C)CO)S3(=O)=O)cc1	6.8
CC1(C)C[C@H]2C3=CCC4[C@@]5(C)CC[C@H](O)[C@](C)(CO)C5CC[C@@]4(C)[C@]3(C)C[C@@H](O)[C@@]2(CO)[C@@H](O)[C@@H]1O (some centres undefined)	-2.3
COc1ccc(NC(=O)Nc2ccc3c(c2)C(=O)N([C@@H](C)CO)C[C@@H](C)[C@@H](CN(C)C(=O)Nc2ccc(OC)cc2)OCCCC[C@H](C)O3)cc1	-7.6
CO[C@@H]1CN(C)C(=O)c2cc(NC(=O)CC(F)(F)F)ccc2OC[C@@H](C)N(S(=O)(=O)c2cn(C)cn2)C[C@H]1C	-2.5
CC(C)CC#Cc1ccc2c(c1)O[C@@H](CN(C)C(=O)c1ccccc1)[C@@H](C)CN([C@@H](C)CO)S2(=O)=O	4.0
CO[C@H]1O[C@H](CO)[C@@H](OC(=O)Nc2cccc(F)c2)[C@@H]2OC(=O)[C@@H](Cc3ccccc3)C/C=C/C[C@H](Cc3ccccc3)C(=O)O[C@@H]12	4.9
O=C(CCNS(=O)(=O)c1ccccc1)OCc1ccc([N+](=O)[O-])cc1	-0.2
COc1cccc(-c2ccc3c(c2)O[C@@H](CN(C)C(=O)C2CCOCC2)[C@@H](C)CN([C@H](C)CO)S3(=O)=O)c1	-0.1
COc1ccc(S(=O)(=O)N(C)C[C@H]2Oc3c(NC(=O)c4cc(C)nn4C)cccc3C(=O)N([C@@H](C)CO)C[C@@H]2C)cc1	-17.5
C[C@H](CO)N1C[C@H](C)[C@H](CN(C)C(=O)N[C@H](C)c2ccccc2)OCc2ccccc2-c2ccccc2C1=O	-4.6
Cc1ccc(S(=O)(=O)NC(=O)C2(C)CCN2C(=O)C2(c3ccc(Cl)cc3)CC2)cc1 (centres undefined)	-1.1
O=S1(=O)CC(O)C(O)CS1 (centres undefined)	-20.6
O=C(NCC[C@@H]1CC[C@H](NS(=O)(=O)c2cccc(F)c2)[C@H](CO)O1)C1CCCCC1	0.9
N#C[C@@H]1[C@H](c2ccccc2)[C@H](CO)N1S(=O)(=O)c1ccc(F)cc1	-2.0
O=C(CN1CCOCC1)N[C@H]1CC[C@@H](CCNS(=O)(=O)c2ccccc2F)O[C@@H]1CO	-0.4
CCCNC(=O)N(C)C[C@@H]1Oc2cc(C3=CCCCC3)ccc2S(=O)(=O)N([C@@H](C)CO)C[C@H]1C	3.5
O=S(=O)(Cc1ccccc1)N1[C@H](CO)[C@@H](c2ccccc2)C12CN(CCC(F)(F)F)C2	2.9
CC(C)CC#Cc1cnc2c(c1)C(=O)N([C@@H](C)CO)C[C@@H](C)[C@@H](CN(C)C(=O)Nc1cccc(F)c1)O2	4.3
COc1ccc(NC(=O)Nc2ccc3c(c2)C(=O)N([C@@H](C)CO)C[C@@H](C)[C@@H](CN(C)Cc2ccc(Cl)c(Cl)c2)O3)cc1	3.6
C[C@@H]1CN([C@H](C)CO)C(=O)c2cc(NC(=O)Nc3cccc4ccccc34)ccc2O[C@@H](C)CCCCO[C@H]1CN(C)Cc1ccccc1	15.5
C[C@@H]1CN([C@@H](C)CO)S(=O)(=O)c2ccc(-c3cncnc3)cc2O[C@@H]1CN(C)C(=O)Cc1cccnc1	-15.2

Some values from the entries so far:
For AF4-AF9 inh, CO[C@@H]1CN(C)C(=O)c2cc(NS(C)(=O)=O)ccc2OC[C@H](C)NC[C@H]1C has the entry -4.5
For AF4-AF9 inh, C[C@@H]1CN([C@H](C)CO)C(=O)c2cc(NC(=O)Nc3cccc4ccccc34)ccc2O[C@@H](C)CCCCO[C@H]1CN(C)Cc1ccccc1 has the entry 15.5
For AF4-AF9 inh, CC1(C)C[C@H]2C3=CCC4[C@@]5(C)CC[C@H](O)[C@](C)(CO)C5CC[C@@]4(C)[C@]3(C)C[C@@H](O)[C@@]2(CO)[C@@H](O)[C@@H]1O (some centres undefined) has the entry -2.3
For AF4-AF9 inh, CO[C@H]1O[C@H](CO)[C@@H](OC(=O)Nc2cccc(F)c2)[C@@H]2OC(=O)[C@@H](Cc3ccccc3)C/C=C/C[C@H](Cc3ccccc3)C(=O)O[C@@H]12 has the entry 4.9
For AF4-AF9 inh, O=C(NCC[C@@H]1CC[C@H](NS(=O)(=O)c2cccc(F)c2)[C@H](CO)O1)C1CCCCC1 has the entry 0.9
